Anaer choline gr: blocks anaerobic gram-negative growth on choline. 55,000 compounds, 0.2% hits. AID 1963822. calls only. Gram-negative bacterium anaerobic choline minimal medium, absorbance growth; hits give low values; many inactives read as strong as hits in the columns shown;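 active = growth z-score on choline under -2 at 7 or 20 h with little or no fall on glycerol, limits in tiers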;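 also: stock transfer was 300 nL into about 50 µL; the organism is E. coli; final concentration not given here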
Anaer choline gr early: second read-out of Anaer choline gr, no call of its own (marks repeat the call); z-score; measured here: choline growth z-score, timepoint 1;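 score of optical density at 7 h as mean of two plates; lower means less growth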
* = called active by the depositor; i = inactive. An excerpt, so the mix of outcomes need not match the whole.

Molecule | Anaer choline gr | Anaer choline gr early
CC(=O)Nc1nc2cc(NC(=O)C3CCCN(S(=O)(=O)N4CCCC4)C3)ccc2s1 (stereo unspecified) | i | -0.7
CCc1cc2c(N3CCCC(C(=O)Nc4nccs4)C3)ncnc2s1 (stereo unspecified) | i | 0.03
Cc1cc(C(=O)Nc2ccc(Cl)cc2)n[nH]1 | i | 0.46
CC(C)(C)c1ccc(S(=O)(=O)c2c[nH]c3ccccc3c2=O)cc1 | i | 0.38
Cn1c(N2CCN(C(=O)CCC3CCCC3)CC2)cc(=O)n(C)c1=O | i | 0.81
Cc1nn(-c2ccc(F)cc2)c2c1c(=O)c(C(=O)NCCC(C)C)cn2C | i | -0.18
O=C(CC1CCCCC1)NCCn1c(C(F)(F)F)nc2cccnc21 | i | -0.02
CC1CCN(S(=O)(=O)c2ccc(-c3nnc(C(=O)NCCCN4CCN(C)CC4)o3)cc2)CC1 | i | -0.6
Cc1nc2ccccc2n1CCc1nc2c3ccccc3nc(NCCC3=CCCCC3)n2n1 | i | -1.3
O=C(NC1CC1)c1ccc(Cn2c(SCc3ccc(F)cc3Cl)nc3ccncc32)cc1 | i | -0.23
Cc1nc(NC(=O)c2csnn2)sc1C | i | -3
COc1ccc(-c2nc(CSc3nc4ccccc4n4c(C)nnc34)c(C)o2)cc1 | i | 1.5

Structural class, the compounds so far with an NH in an aromatic ring.
Molecule | Anaer choline gr | Anaer choline gr early
Cc1cc(C(=O)Nc2ccc(Cl)cc2)n[nH]1 | i | 0.46
CC(C)(C)c1ccc(S(=O)(=O)c2c[nH]c3ccccc3c2=O)cc1 | i | 0.38

(next part)
Molecule | Anaer choline gr | Anaer choline gr early
Cc1nn(-c2nc3ccccc3o2)c2c1C(c1cccc(F)c1F)CC(=O)N2 (stereo unspecified) | i | -0.07
Cc1ccc2c(=O)cc(C(=O)Nc3ccc(S(N)(=O)=O)cc3)oc2c1 | i | 0.16
CCOc1ccc(NC(=O)c2oc3ccc(Br)cc3c2C)c2cccnc12 | i | -0.22
O=c1n(Cc2ccc(Cl)cc2)nc2c(S(=O)(=O)N3CCc4ccccc4C3)cccn12 | i | 0.61
CC1CN(c2oc(-c3ccc(F)cc3)nc2S(=O)(=O)c2ccccc2)CC(C)O1 (stereo unspecified) | i | 0.02
CC(C)Cc1cc(-c2nnc3sc(-c4cc5ccccc5o4)nn23)n[nH]1 | i | -0.17
COC(=O)c1c(C)[nH]c(C(=O)N2CCC(CC(=O)NCCc3c[nH]c4ccc(Cl)cc34)CC2)c1C | i | -1.2
CCC(C(=O)N1CCc2ccccc21)n1nc(-c2ccc(C)c(C)c2)ccc1=O (stereo unspecified) | i | 1.2
CC(C)NC(=O)c1sc(N2CCCC2)nc1N | i | 0.08
COc1ccc(C(=O)Nc2cnc(N3CCN(c4ccccc4Cl)CC3)c(C(=O)O)c2)cc1 | i | -0.08
Cc1nn2c(=O)cc(CSc3nnc(-c4ccc5c(c4)OCO5)o3)nc2s1 | i | 0.06
COc1ccc(-c2cc(C(F)(F)F)nc(SCC(=O)N3CCN(c4ccc(F)cc4)CC3)n2)cc1 | i | -0.02

Looked up by compound from above:
Molecule | Anaer choline gr | Anaer choline gr early
Cc1nn(-c2ccc(F)cc2)c2c1c(=O)c(C(=O)NCCC(C)C)cn2C | i | -0.18
Cn1c(N2CCN(C(=O)CCC3CCCC3)CC2)cc(=O)n(C)c1=O | i | 0.81

(more compounds)
Molecule | Anaer choline gr | Anaer choline gr early
Brc1ccc(C(NCc2ccccc2)c2nnc(-c3ccccc3)o2)cc1 (stereo unspecified) | i | 1
CCOc1ccc(C(=O)NCCn2c(C(F)(F)F)nc3ccccc32)cc1 | i | 0.24
CC(=O)Nc1nc2ccc(CCC(=O)NCc3ccc4c(c3)OCO4)cc2s1 | i | -0.5
Cc1cc(C)n(CCc2nc3c4ccccc4n(Cc4ccc(Cl)cc4)c(=O)n3n2)n1 | i | -0.2
O=C(Nc1cccc(Cl)c1)N1CCN(Cc2nc3cccnc3n2-c2ccccc2)CC1 | i | -0.23
O=c1[nH]c2cc(-c3noc(-c4ccc5c(c4)OCO5)n3)ccc2n1C1CCCC1 | i | 0.5
Clc1ccc(-c2noc(CSc3ccc(-c4ccc5c(c4)OCO5)nn3)n2)cc1 | i | 0.17
Cc1ccc(C2CC(=O)N(C)c3c2c(C)nn3-c2nc3ccccc3s2)cc1 (stereo unspecified) | i | 0.09
O=C(NCc1ccc(Br)cc1)C1CCCN(C(=O)c2cc(-c3ccncc3)n[nH]2)C1 (stereo unspecified) | i | -0.93
Cc1ccc(C(=O)Nc2ccccc2C(=O)OCc2cc(=O)n3oc(C)cc3n2)cc1 | i | -0.33
N#Cc1nc(-c2ccc(S(=O)(=O)N3CCCC3)cc2)oc1NC1CC1 | i | 0.57
O=C(c1ccccc1Cl)N1CCC(c2nc3ccccc3s2)CC1 | i | -0.28
CC(C)N1CCc2c(sc(NC(=O)C(C)(C)C)c2-c2nc3ccccc3s2)C1 | i | -2.6
O=C(NC1CC1)c1cc2cc3ccc(Cl)cc3nc2o1 | i | -2.5
COc1ccc(C2N=C(N3CCc4ccccc43)Nc3nc(C)cc(=O)n32)cc1 (stereo unspecified) | i | -1.7
CC(Sc1nnc(-c2cc3ccccc3[nH]2)o1)C(=O)N1CCc2ccccc21 (stereo unspecified) | i | -0.04
O=C(Cn1c(=O)c2cccn2c2ccccc21)NCCc1c[nH]c2ccccc12 | i | 1.1
CCCN(Cc1ccc(F)cc1)Cc1cc(=O)n2nc(C3CC3)sc2n1 | i | 0.03
Cc1ccccc1OC(=O)c1cc(-c2ccc3c(c2)OCCO3)on1 | i | 0.75
Cc1nn(-c2ccccc2)c(N2CCC(C(=O)N3CCCCC3)CC2)c1-n1c(C)ccc1C | i | 0.09
O=S(=O)(c1ccc(F)c(Cl)c1)N1CCN(c2nc3ccccc3n3cccc23)CC1 | i | -2
COc1ccc(Cn2ncc3ccc(C(=O)NCc4ccc(Cl)cc4)cc32)cc1 | i | -0.41
CCC(=O)Nc1nc2ccc(NC(=O)CCC3CCCC3)cc2s1 | i | 0.76
Cn1c(SCC(=O)NCc2ccccc2)nc2c(sc(=S)n2-c2ccccc2)c1=O | i | 0.45

Part of the list above, as labelled records.
SMILES: CC(Sc1nnc(-c2cc3ccccc3[nH]2)o1)C(=O)N1CCc2ccccc21 (stereo unspecified)
  Anaer choline gr: i	Anaer choline gr early: -0.04

SMILES: Cc1nn(-c2ccccc2)c(N2CCC(C(=O)N3CCCCC3)CC2)c1-n1c(C)ccc1C
  Anaer choline gr: i	Anaer choline gr early: 0.09

SMILES: O=C(Cn1c(=O)c2cccn2c2ccccc21)NCCc1c[nH]c2ccccc12
  Anaer choline gr: i	Anaer choline gr early: 1.1

SMILES: Cn1c(SCC(=O)NCc2ccccc2)nc2c(sc(=S)n2-c2ccccc2)c1=O
  Anaer choline gr: i	Anaer choline gr early: 0.45

Next section:
Molecule | Anaer choline gr | Anaer choline gr early
COc1cc(NC(=O)Cn2nc(N3CCN(c4ccc(F)cc4)CC3)ccc2=O)cc(OC)c1 | i | 0.9
COCCNS(=O)(=O)c1ccc2c(c1)N(Cc1noc(C3CCC3)n1)C(=O)CO2 | i | 0.69
Cc1ccc(C(=O)Nc2ccccc2Sc2cc(C)nc3ncnn23)cc1 | i | 0.39
COc1cc(OC)c(NC(=O)C2CC3CSCN3C23C(=O)Nc2ccccc23)cc1Cl (stereo unspecified) | i | -0.06
CCC(=O)C1=C(c2ccc(Br)cc2)N(C(=O)CC)n2c(CC)nnc2S1 | i | -0.26
CNC(=O)N1CCCC(c2cccc(C(=O)NCc3cccc(Br)c3)c2)C1 (stereo unspecified) | i | 0.64
Cc1ccc2c(cnn2C(=O)CCCC(=O)NCCc2ccc(Cl)cc2)c1 | i | 1.1
O=C(CSc1nc2nc[nH]c2c(=O)[nH]1)Nc1cccc(F)c1 | i | -0.24
CCOc1ccc(NS(=O)(=O)c2cc(C(=O)N3CCN(c4cccc(C)c4)C(C)C3)n[nH]2)cc1 (stereo unspecified) | i | 0.84
Cc1cccc(-c2noc(-c3ccccc3NC(=O)C(C)(C)C)n2)c1 | i | -0.63
CCCS(=O)(=O)N1CCC(c2c(C)n(Cc3ccc(Cl)cc3)c3ccccc23)CC1 | i | 0.64
O=S(=O)(NC1CCCCCC1)c1ccc(-c2cnc(C3CCC3)o2)s1 | i | 0.47

Other structures.
| SMILES | Anaer choline gr | Anaer choline gr early |
| --- | --- | --- |
| O=c1ccc(-c2ccc(F)cc2)nn1CCc1nc(-c2ccc(F)cc2)no1 | i | -0.42 |
| CCc1cc(C(=O)NCCN2CCOCC2)no1 | i | -1.3 |
| COc1cccc(NC(=O)C2CCN(c3ncnc4c3sc3nc(C)cc(-c5ccccc5)c34)CC2)c1 | i | 1 |
| CCCc1nc2nc(C)c(NS(=O)(=O)c3ccc(C4CCCCC4)cc3)c(=O)n2[nH]1 | i | -0.22 |
| O=S(=O)(c1cc(-c2nnc(C3CC3)o2)co1)N1CCN(c2ccccn2)CC1 | i | 0.85 |
| COC(=O)c1c(-c2ccc(Cl)cc2)noc1NCCN(C)C1CCCCC1 | i | -0.36 |
| CCOCCCNS(=O)(=O)c1cc(-c2ccno2)cs1 | i | -1.1 |
| COc1ccc(-c2csc3c(=O)[nH]cnc23)cc1 | i | -0.62 |
| Cc1nnc(-c2ccc(S(=O)(=O)N3CCOCC3)s2)o1 | i | -1.6 |
| O=S(=O)(c1ccc2c(c1)OCCO2)N1CCN(c2ncnc3c2nnn3-c2cccc(F)c2)CC1 | i | -1.5 |
| O=C(Nc1cccc(F)c1)C1CCC(CNc2c(N3CCCC3)c(=O)c2=O)CC1 (stereo unspecified) | i | -0.18 |
| Cc1nc2cc(-c3noc(/C=C/c4ccco4)n3)ccc2o1 | i | 0.36 |
| Cc1nn(-c2ccc3nnc(C)n3n2)c2c1C(c1cc(F)ccc1F)CC(=O)N2 (stereo unspecified) | i | -0.23 |
| O=C(O)c1ccc(N2CCN(C3CCCCC3)CC2)c(NS(=O)(=O)c2cc(F)ccc2F)c1 | i | -0.04 |
| CC(C)CNC(=O)C1CCc2nc(N3CCCCC3)ncc2C1 (stereo unspecified) | i | 0.3 |
| CCc1nnc(-c2cn(CC(=O)Nc3cccc(OC)c3)c3ccccc23)o1 | i | -1.1 |
| COc1ccc(CCNC(=O)CN2C(=O)C(C)=C(c3ccc(C)c(C)c3)S2(=O)=O)cc1OC | i | 0.52 |
| CCCn1c(=O)oc2cc(NS(=O)(=O)c3ccc4[nH]c(=O)[nH]c4c3)ccc21 | i | -1.2 |
| O=C(NCc1c(-c2ccc(F)cc2)nc2n1CCS2)c1ccc(Cl)cc1 | i | 0.18 |
| CSc1ccc(Nc2ncccc2S(=O)(=O)Nc2ccc(F)cc2)cc1 | i | 0.82 |
| O=C1CCCc2cc(S(=O)(=O)N3CCCC3C(=O)NCCc3ccc(Cl)cc3)ccc2N1 (stereo unspecified) | i | -0.35 |
| CCc1ccc(OC(C)C(=O)Nc2nonc2-c2ccc(C)c(C)c2)cc1 (stereo unspecified) | i | -0.9 |
| Cc1noc(/C=C/c2ccc(S(=O)(=O)NCC3CCCO3)s2)c1NC(=O)C1CC1 (stereo unspecified) | i | -0.84 |
| Cc1c(CCNC(=O)c2ccc(C(C)(C)C)cc2)sc2nc(-c3ccc(F)cc3)nn12 | i | 1.1 |
| Cc1cc(NCc2ccccn2)n2ncc(-c3ccccc3)c2n1 | i | 0.65 |
| CCOc1cc(-c2noc(CCCC(=O)Nc3cccnc3)n2)ccc1OC | i | -0.21 |
| CCOc1ccc(-c2[nH]ncc2CN2CCCC2c2cc(C)on2)cc1 (stereo unspecified) | i | 0.53 |
| Cc1ncc(-c2ccc(S(=O)(=O)N3CCC(Cc4ccccc4)CC3)s2)o1 | i | 0.59 |
| CC1CCN(c2c(-c3ccccc3)c(=O)c2=O)CC1 | i | 0.07 |
| O=C1CCCN1c1ccc(CN2CC(=O)N(Cc3ccccc3)c3ccccc3S2(=O)=O)cc1 | i | 1.3 |
| COC(=O)c1c(C)oc2ccc(O)c(CN3CCC(C)CC3)c12 | i | -0.21 |
| CCc1onc(C)c1C1CCCN1Cc1cccc(F)c1F (stereo unspecified) | i | 0.53 |
| CC(C)CC(=O)N1CCc2c(c(C(=O)N3CCCC(C(=O)Nc4ccccc4)C3)nn2C)C1 (stereo unspecified) | i | 0.12 |
| O=c1[nH]c(SCc2ccc(F)cc2)nc2c(-c3ccccc3)c[nH]c12 | i | 0.96 |
| Cc1ccc(C)c(NC(=O)CSc2ncnc3nc(N4CCc5ccccc5C4)sc23)c1 | i | 0.37 |
| Cc1ccc2cccc(NC(=O)c3ccccc3C)c2n1 | i | -0.09 |
| Cc1nn(-c2cc(N3CCCC3)ncn2)c(C)c1CCC(=O)Nc1ccc(Cl)cc1 | i | 0.37 |
| COc1cccc(-c2nc3c4ccccc4n(CC(=O)c4ccc(OC)c(OC)c4)c(=O)n3n2)c1 | i | -0.15 |
| O=C(Cn1nc(C(=O)Nc2ccccc2)ccc1=O)Nc1cccc(F)c1 | i | 0.07 |
| Fc1ccc(-c2noc(CSc3ccc(-c4ccccc4F)nn3)n2)cc1 | i | 0.32 |
| Cc1cccc(COc2cc(C)c3c(C)nn(C)c3n2)c1 | i | 0 |
| COc1ccc(N2C(=O)c3cc4ccsc4n3CC2(C)C(=O)NC2CCCC2)cc1 (stereo unspecified) | i | -0.48 |
| CCN(c1ccccc1)S(=O)(=O)c1cc(-c2ccc(=O)n(-c3c(C)noc3C)n2)ccc1C | i | 0.87 |
| CCn1c(=O)n(-c2ccccc2)c(=O)c2cc3c(nc21)CC(C)(C)OC3 | i | 0.3 |
| Cc1ccc(Cl)cc1N1CCN(C(=O)c2[nH]c(C)c(S(=O)(=O)N3CCOCC3)c2C)CC1 | i | -0.76 |
| Cc1nc(-c2csc(S(=O)(=O)N3CCCC(C(=O)NC4CCC(C)CC4)C3)c2)no1 (stereo unspecified) | i | -0.88 |
| C=Cc1ccc(CSc2nnc3c(S(=O)(=O)N4CCCC4)cccn23)cc1 | i | 0.39 |
| Cc1ccc(-c2csc3c2ncn2c(=O)n(CC(=O)NCCc4ccc(Cl)cc4)nc32)cc1 | i | -0.95 |
| Cc1ccc(NC(=O)Nc2nnc(SCC(=O)Nc3ccccc3)s2)cc1 | i | 1.4 |

Assay outcomes as filed in PubChem.
